High-throughput results: PubChem, National Center for Advancing Translational Sciences (NCATS)
PINK1 expr mod: PINK1 expression modulation | PINK1 immunofluorescence, high-content cytometry, 24 h | Potency, µM (titrated, usually from 76.6 µM), for the others: top-dose activation (PINK1 increase), actives largely listed as activators | 410,000 compounds, 0.2% hits; active = well fitted activation curve with a large enough effect; inconclusive = small, poorly fitted or top-dose-only effect; inactive = flat fitted curve, though single readings scatter; cell line not stated here;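 also: potency is read from the fitted curve at half-maximal effect; % of control where 0% means no effect; nearly all actives have a fitted effect of over 65% in size; a mitochondrial uncoupler was the plate control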
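Fluorescence from anti-PINK1 antibody, together with nuclear and cell stains, was scanned on a laser-scanning cytometer. Before staining, stable-line cells were incubated 24 hours with compounds at 5 concentrations; primary antibody 12 h at 10 degrees C.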
D2 ag: activates the human D2 dopamine receptor; P14416; DiscoveRx PathHunter D2 beta-arrestin, luminescence, 90 min; 100% = 57 uM dopamine signal; activation, % (concentration not given with the values); 360,000 compounds, 0.084% hits; in the data active = activation above about 40%; inconclusive = about 15% to 40%; inactive = below about 15%; also: the text of the record calls up to 30% inactive
Target sequence (P14416 whole entry, looked up): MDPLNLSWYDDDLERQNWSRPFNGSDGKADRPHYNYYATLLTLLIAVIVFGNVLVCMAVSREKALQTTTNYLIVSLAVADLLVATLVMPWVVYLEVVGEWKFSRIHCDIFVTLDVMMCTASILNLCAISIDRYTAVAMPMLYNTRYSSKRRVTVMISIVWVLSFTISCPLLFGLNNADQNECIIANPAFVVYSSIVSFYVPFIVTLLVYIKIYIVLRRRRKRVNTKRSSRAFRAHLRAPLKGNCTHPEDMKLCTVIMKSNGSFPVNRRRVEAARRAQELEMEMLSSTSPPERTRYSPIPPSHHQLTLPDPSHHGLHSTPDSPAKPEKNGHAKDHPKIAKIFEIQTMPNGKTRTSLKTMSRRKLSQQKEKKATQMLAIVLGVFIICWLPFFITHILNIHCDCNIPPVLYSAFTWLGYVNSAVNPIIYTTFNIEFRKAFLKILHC
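Agonist mode: compounds alone added to overnight-plated D2 PathHunter cells for 90 min at 37 C, with 57 uM final dopamine (EC100) defining full response. Beta-arrestin recruitment detected by chemiluminescent reagent, read after 1 h at ambient temperature.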
TRPML1 agonist: agonists of human TRPML1 channel. TRPML1-expressing cells, Ca2+ dye fluorescence, FDSS; host cell line not named in the record; reference of the full effect not given here. activation, % (test concentration not listed). 410,000 compounds, 0.12% hits. AID 624414; in the data active = activation above about 50%; inconclusive = about 30% to 50%; inactive = below about 30%; also: 0% is about no effect; the text of the record puts the active cut at 80%
Target sequence (Q9GZU1 whole entry, looked up): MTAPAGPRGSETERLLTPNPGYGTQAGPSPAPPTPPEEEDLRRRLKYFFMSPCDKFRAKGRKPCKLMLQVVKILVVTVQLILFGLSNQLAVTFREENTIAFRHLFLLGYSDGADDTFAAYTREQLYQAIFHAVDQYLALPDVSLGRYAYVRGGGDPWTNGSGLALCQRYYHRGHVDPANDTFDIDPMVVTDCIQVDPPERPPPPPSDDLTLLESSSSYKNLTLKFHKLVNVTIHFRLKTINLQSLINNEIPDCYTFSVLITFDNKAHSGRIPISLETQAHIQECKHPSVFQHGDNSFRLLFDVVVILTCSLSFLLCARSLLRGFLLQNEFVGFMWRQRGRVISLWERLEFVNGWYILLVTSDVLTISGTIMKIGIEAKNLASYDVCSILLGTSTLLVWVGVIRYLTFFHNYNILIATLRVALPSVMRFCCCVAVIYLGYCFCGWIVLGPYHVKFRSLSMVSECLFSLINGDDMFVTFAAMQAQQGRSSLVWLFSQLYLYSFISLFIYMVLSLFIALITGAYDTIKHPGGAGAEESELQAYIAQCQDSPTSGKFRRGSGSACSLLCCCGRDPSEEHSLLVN
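TRPML1-DL cells, Tet-induced overnight (~16 h, 37 degrees C), loaded 45-90 min at room temperature with Ca8 no-wash calcium dye plus quencher. FDSS fluorescence: 10 s baseline, compound pin-transfer, 110 s agonist read, then EC80 54-4 (4uM final) and 110 s antagonist read.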
CtBP-E1A blk: CtBP/E1A binding inhibition | AlphaScreen GST-E1A/His-CtBP binding, 1536-well; hits give low values; control for the full effect not named in the record | activity change, % (test concentration not listed) | 340,000 compounds, 0.49% hits | AID 651724; in the data active means activity change below about -65%; inconclusive means about -30% to -65%; inactive means above about -30%; also: % is scaled to controls: 0 for no effect and ±100 for the full control effect
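AlphaScreen with 125 nM GST-E1A and 125 nM His-CtBP (5X stocks) in Tris pH 8.0, 300 mM NaCl, BSA, Tween 20, TCEP. Compounds preincubated 2 h at 37 deg C, then glutathione donor/nickel acceptor beads added for 1 h at 37 deg C in dark.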
Six1-Eya2 inh: Six1/Eya2 interaction inhibition; activity change, % (concentration not given with the values); AlphaScreen GST-Six1/His-Eya2 binding, biochemical; hits give low values; control for the full effect not named in the record; 360,000 compounds, 0.56% hits; Q15475+O00167; in the data active = activity change below about -65%; inconclusive = about -30% to -65%; inactive = above about -30%; also: % is scaled to controls: 0 for no effect and ±100 for the full control effect
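AlphaScreen luminescence read after one hour at 37 °C in darkness. Pin-transferred compounds met GST-Six1 and His-Eya2 protein (5X stock 250 nM/500 nM) plus glutathione donor and Ni-chelate acceptor beads (5X, 50 ug/mL).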
TRPML1 blocker: blocks the human TRPML1 channel | Q9GZU1 | TRPML1-inducible cells, Ca2+ dye fluorescence, FDSS; hits give low values; inhibition of EC80 agonist-evoked calcium signal | activity change, negative = inhibition, % (no concentration beside the values) | 390,000 compounds, 0.02% hits | AID 624415; in the data active means activity change below about -50%; inconclusive means about -30% to -50%; inactive means above about -30%;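 also: stimulus is agonist 54-4 at its EC80 concentration; % is scaled to controls: 0 for no effect and ±100 for the full control effect; compound concentration not given in the record; the text of the record puts the active cut at -80%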
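TRPML1-DL cells, Tet-induced overnight (~16 h, 37 °C) at 1,500 cells/well, were loaded with Ca8 no-wash dye plus quencher for 45-90 min at room temperature. Compounds were pinned during FDSS kinetic reading; agonist 54-4 at EC80 (4 uM final) then added.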
* hit, by the source's call; ? = inconclusive; nt = no result given; & = joins results of further samples; [ ] = another dose, or the depositor's remark.

SMILES	PINK1 expr mod	D2 ag	TRPML1 agonist	CtBP-E1A blk	Six1-Eya2 inh	TRPML1 blocker
O=S(=O)(NCCOCC(F)(F)F)c1ccc2oc3ccccc3c2c1	0.1%	-2.2	6.7	-1	5	16
Cc1csc(SCC(=O)Nc2cc([N+](=O)[O-])ccc2F)n1	1.2%	-1.3	0.2	-2	-1	13
Nc1ccc2nc3c(=O)n(CCc4ccccc4)c(=O)[nH]c3nc2c1	0.7%	6.0	75*	-23	?	-28
C=CCN1CCN(c2ccncc2S(=O)(=O)N2CCN(C)CC2)CC1	1.5%	10	0.3	0	7	-13
O=C(N/N=C/c1ccc(O)c(O)c1)c1cccc(S(=O)(=O)N2CCCCC2)c1	3.4%	-2.6	-0.5	-17	-9	-3
COc1ccc(OCC(=O)Nc2cccc(-c3nc4ccccc4[nH]3)c2)cc1	2.7%[38.3 µM]	-1.1	1.1	-14	-13	-13
Cc1ccc(C(=O)N2CCNC(=O)C2CC(=O)Nc2ccccc2)cc1 (stereo not given)	1.0%	4.6	0.8	-1	4	-8
CCCCn1c(N)c(N(CC)C(=O)c2cccc(S(=O)(=O)N3CCN(C)CC3)c2)c(=O)[nH]c1=O	-2.7%	1.1	0.7	0	9	-3
Cn1c(=O)c2c(SCC(=O)N3CCc4ccccc43)nc(-c3ccccc3Cl)nc2n(C)c1=O	4.4%	nt	3.2	nt	nt	-25
O=C1c2cccc3cccc(c23)C(=O)N1CC1CCCO1 (stereo not given)	-0.9%	-0.7	1.0	-8	-4	-4
CN(C)S(=O)(=O)c1ccc(Cl)c(NC(=O)COC(=O)c2ccc3c(c2)NC(=O)CS3)c1	-0.2%	-2.7	-0.6	nt	-2	-8
O=C(NC1CCCCC1)C1CC(=O)N(c2ccc(Cl)cc2)C1 (stereo not given)	0.9%	2.7	0.1	2	3	1
Cc1ccc(C(=O)NNC(=O)C2CCN(S(=O)(=O)c3ccc(C)cc3)CC2)cc1	8.0%	-1.6	0.7	5	7	57
Cc1[nH]c2ccccc2c1/C=N/NC(=O)c1cc(-c2cccs2)[nH]n1	-1.5%	-2.7	0.7	nt	-20	-19
Cc1cc(Cl)ccc1NC(=O)CSc1nnc(-c2ccncc2)n1Cc1ccco1	-1.8%	0.1	-0.3	2	-1	6
CCCN(CCC)CC(O)Cn1cc(/C=C/C(=O)c2ccc(OC)cc2)c2ccccc21 (stereo not given)	-1.5%	nt	3.7	nt	nt	18
Cc1ccc(CNC(=O)COC(=O)Cn2nc(C)c([N+](=O)[O-])c2C)cc1	0.6%	1.0	-0.7	6	-3	10
O=S1(=O)C[C@@H](N2CCN(c3ccccc3)CC2)[C@H](COCc2ccccc2)N1	0.0%	-1.7	-0.6	4	3	nt
CCC(=O)N1CCc2cc(Br)cc(S(=O)(=O)CCC(=O)NCc3cccc(OC)c3)c21	-0.2%	nt	-1.1	nt	nt	9
Cc1cc(C2C(C#N)=C(N)Oc3n[nH]c(C)c32)c(C)s1 (stereo not given)	2.5%	-0.9	0.0	0	4	-1
CCOC(=O)c1nnc(-c2cccs2)nc1Oc1ccc(Cl)cc1	-0.7%	-1.0	2.9	6	3	-11
Cc1ccc(S(=O)(=O)Nc2cc3c(C(=O)O)c(C)oc3c3ccccc23)c(C)c1	0.8%	3.6	1.0	11	9	13
CCC(C(=O)NCc1ccccc1Cl)n1nc(C)c2sc3ccccc3c2c1=O (stereo not given)	1.8%	nt	1.0	nt	nt	5
COCCN=C1NC(=O)C(CC(=O)Nc2cccc(Cl)c2C)S1 (stereo not given)	0.8%	-0.2	1.0	22	9	16
CC(C)Sc1nsc2nc(=O)c(/C=C3\C=Nc4ccccc43)c(N)n12	4.0%	5.0	0.5	-11	-11	4
Cc1ccc(C(=O)N2CCn3c4c(c5cc(C)ccc53)CCCC42)cc1 (stereo not given)	-1.3%	nt	2.1	nt	nt	3
C=CCc1c(C)nc(SC)nc1Nc1ccc(C(=O)O)cc1	-0.8%[38.3 µM]	-2.2	-0.8	-2	-2	0
COc1cc(NC(=O)CSc2ccc(-c3sc(C)nc3C)nn2)cc(OC)c1	0.2%	nt	2.2	nt	nt	28
CCOC(=O)C(C)Sc1nc2c(c(-c3cccs3)c1C#N)CCC2 (stereo not given)	5.0%	1.2	3.8	14	31	4
COc1ccc(C2=NN(S(C)(=O)=O)C(c3ccc4nccnc4c3)C2)cc1 (stereo not given)	1.2%	-1.9	0.5	-7	-3	-10
CCC(Sc1nc2cc3c(cc2c(=O)n1CCCC(=O)NCc1ccc2c(c1)OCO2)OCO3)C(=O)NCCCOC (stereo not given)	-0.4%	nt	1.7	nt	nt	-18
O=C1c2ccccc2CN1CCNS(=O)(=O)c1ccc(Cl)cc1	0.7%	-2.0	-0.6	5	12	-13
COc1ccc(-c2c(NC(=O)c3ccco3)oc3c(C)cccc3c2=O)cc1OC	0.7%	2.0	-0.2	2	-2	11
Cc1c(C)n(C)c2ccc(C(=O)NCCCN3CCN(C)CC3)cc12	-0.1%	-1.9	-1.0	-2	-6	-10
Cc1ccc(NC(=O)CN(CCc2ccccc2)S(C)(=O)=O)cc1	3.6%	0.3	-0.4	16	21	-15
CC(=O)Nc1ccc(C)cc1NC(C)=O	-1.9%	-2.5	0.3	7	1	-5
CCC(=O)Nc1ccc(C(=O)NCc2ccccn2)cc1	-1.8%	0.5	2.2	5	0	-12
O=C(CSc1nc(=O)n2ccccc2n1)Nc1ccc2c(c1)OCCO2	-0.5%	2.4	-0.1	8	3	1
COc1ccc(NC(=O)c2cc(C)no2)cc1OC	2.2%	-3.6	0.4	3	-7	12
COC(=O)C1=C(NC(=O)c2ccc(C)cc2)CCS1	5.2%[38.3 µM]	-2.9	1.9	7	7	34

An excerpt of these results, with two lines to a compound:
Values in the order – PINK1 expr mod | D2 ag | TRPML1 agonist | CtBP-E1A blk | Six1-Eya2 inh | TRPML1 blocker
> O=C1c2ccccc2CN1CCNS(=O)(=O)c1ccc(Cl)cc1
→ 0.7% | -2.0 | -0.6 | 5 | 12 | -13
> COc1ccc(-c2c(NC(=O)c3ccco3)oc3c(C)cccc3c2=O)cc1OC
→ 0.7% | 2.0 | -0.2 | 2 | -2 | 11

The main list resumes with the three entries that preceded the break.
SMILES	PINK1 expr mod	D2 ag	TRPML1 agonist	CtBP-E1A blk	Six1-Eya2 inh	TRPML1 blocker
O=C(CSc1nc(=O)n2ccccc2n1)Nc1ccc2c(c1)OCCO2	-0.5%	2.4	-0.1	8	3	1
COc1ccc(NC(=O)c2cc(C)no2)cc1OC	2.2%	-3.6	0.4	3	-7	12
COC(=O)C1=C(NC(=O)c2ccc(C)cc2)CCS1	5.2%[38.3 µM]	-2.9	1.9	7	7	34
COc1ccc([N+](=O)[O-])cc1NCc1c(F)cccc1F	?	2.9	0.2	0	5	5
COc1cc2cnc(CCO[C@H]3CCCCO3)cc2cc1OC	-0.3%	-11	-0.1	-17	2	0
COC(=O)c1cccc(NC(=O)Nc2ccccc2OC)c1	1.6%	-1.7	0.0	-3	-3	21
CCOC(=O)N1CCC(N(CCCOC)C(=O)Nc2cccc(OC)c2)CC1	?	0.8	0.4	1	3	30
CCOC(=O)c1nc2ccccc2nc1C	4.3%	-3.3	-0.1	-5	2	-1
COc1ccccc1C(=O)N1CCC(c2noc(-c3ccc(S(=O)(=O)N4CCCC4)cc3)n2)CC1	1.0%	nt	-0.1	nt	nt	-14
CCCc1oc(C(=O)O)cc1CN1CCOCC1	3.9%[38.3 µM]	0.2	-0.2	9	0	-4
O=c1[nH]c(-c2cccnc2)nc2sc(-c3ccccc3)cc12	7.6%	2.6	1.6	nt	4	-8
Cc1ccc(O)c(CC(C)C)n1	-0.5%	-4.5	-0.3	12	-17	1
CCC(C)(C)NC(=O)C(c1ccncc1)N(Cc1cccs1)C(=O)Cn1nnc2ccccc21 (stereo not given)	-1.0%	-3.1	-1.8	0	17	6
CSc1ccc(S(=O)(=O)N2CCCC2)cc1	0.2%	-0.7	1.1	-2	13	53
O=C(Cc1ccc(Cl)cc1)Nc1ccc(NC(=O)c2ccccc2)cc1	?	-2.0	0.2	-1	14	15
O=C(c1cc2ccccc2oc1=O)N1CCN(c2ccc(F)cc2)CC1	0.0%	nt	0.8	nt	nt	2
CN(C)c1cccc(N(C)C)c1CNC(=O)C(C)(C)C	-0.5%	2.6	1.0	7	-1	1
O=C(Nc1ccccc1)c1ccc(-c2ccccc2)s1	11%	-4.2	-0.3	16	13	6
O=C(COC(=O)c1cc(Cl)nc(Cl)c1)NCCc1ccc(F)cc1	1.6%	-0.1	-0.1	nt	-1	5
O=C1CSc2ccc(S(=O)(=O)N3CCN(c4ccccc4)CC3)cc2N1	-0.3%	7.6	1.4	nt	-11	-13
CC(=O)Nc1c(Cl)c(Cl)c2c(c1Cl)Cc1cc(Cl)ccc1-2	8.9%	5.4	-0.4	-1	-1	5
CCOC(=O)C1=C(O)C(Nc2nccs2)(C(F)(F)F)N=C1C (stereo not given)	-1.5%	-4.1	-0.4	1	32	-4
Clc1ccc(CN2CCN(c3ncnc4sc5c(c34)CCCC5)CC2)cc1Cl	-3.9%	nt	0.8	nt	nt	23
CC(C)Sc1nc2c([nH]1)c(=N)ncn2Cc1ccccc1	1.5%	2.4	1.4	-15	7	-1
COc1ccc2c(CNCc3ccc(C)o3)c(C(=O)O)n(Cc3ccccc3C)c2c1	1.7%	nt	-0.5	nt	nt	4
COc1ccc2[nH]c3c(=O)n(CCCC(=O)NC4CCC(C)CC4)c(=S)[nH]c3c2c1 (stereo not given)	5.9%	-2.4	0.8	nt	-2	11
COc1cc(/C=C/C(=O)OCC(=O)Nc2ccc(S(=O)(=O)N3CCCC3)cc2)ccc1O	0.4%	1.6	0.5	-12	-4	9
CC1CSC(N(C(=O)c2ccc(S(C)(=O)=O)cc2)c2ccc(Cl)cc2)=N1 (stereo not given)	0.2%	-2.5	-0.9	2	0	4
CCOc1ccc(NC(=O)CN(C)C(=O)Cc2ccsc2)cc1OCC	1.0%	-0.6	0.0	-1	3	2
Cc1ccc(-n2nnnc2CCl)cc1	7.7%	-4.5	1.4	-8	-11	-4
CNC(=O)Nc1cc(C(C)(C)C)no1	-1.5%	-0.5	2.8	-1	2	-5
CCn1c(C)c(C(C)=O)c(N2CCN(c3ccc(F)cc3)CC2)nc1=S	1.2%	1.9	0.3	0	6	-4
CCC(=O)N1CCc2cc(S(=O)(=O)N3CCCCC3CC)ccc21 (stereo not given)	3.0%	-4.0	-0.7	-3	1	30
CC(C)C[C@@H](COc1ccccc1)N1CCN(CCc2ccccc2)CCC1=O	2.2%	-1.9	1.1&-0.8	-7	-12	-6
CN1CCC(N(C)S(=O)(=O)c2ccc(NC(=O)COc3ccc(Br)cc3Cl)cc2)CC1	-4.6%	-7.0	8.4	-6	-18	36
O=C1CCCC(O)=C1N=Nc1ccc(Cl)c(Cl)c1	-0.8%	-4.5	-0.8	-1	-10	1
CCc1ccc(C(C)NC(=S)NC2CCCCC2)cc1 (stereo not given)	?	-4.7	-0.2	-10	-15	44
